Rango release inh = prevents RanGTP from dissociating the Rango-importin beta complex; O95149+P62826; Biochemical FRET Rango-importin beta, RanGTP-induced dissociation; Potency, µM (titrated, usually from 46.1 µM), for inactives: top-dose activity change, negative = inhibition; 0.071% of 340,000 active; AID 540253; active means falling FRET ratio curve, often poorly fitted, with flat reads before Ran was added; inconclusive means other falling curves, or compound fluorescence or quenching; inactive means flat or rising ratio curve;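 further: potency means the concentration at half of the fitted maximal effect; % of control where 0% means no effect; nearly all actives have a fitted effect of over 45% in size; -100% = wells without RanGTP and RCC1; the record marks most hits as doubtful in a second field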
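Compounds preincubate 5 min with complex of recombinant Rango and importin beta in PBS with 1 mM DTT. Ran (0.6 uM) loaded with 2 mM GTP plus 0.2 uM RCC1 starts dissociation; FRET is recorded 45 min later.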
miR-21 reporter = miR-21 reporter, rising signal | Potency, µM (top dose mostly 38.3 µM), inactives show at the highest dose reporter change, positive = more light | 340,000 tested, under 10 active | HeLa miR-21 FLuc reporter, luciferase, 48 h; active = well fitted rising curve with a large enough effect; inconclusive = small, poorly fitted or top-dose-only effect; inactive = no such curve, though single readings can be large or run the other way;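 further: % of control where 0% means no effect; miR-21 action dims this reporter so a rising signal means less miR-21 action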
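HeLa cells stably expressing CMV-driven firefly luciferase with a downstream miR-21 binding sequence, endogenously expressing miR-21, were treated with titrations (up to about 40uM final) for 48 hours at 37 degree Celsius. Luciferase luminescence was read after lysis.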
GLA inh pH 4.5 = blocks human alpha-galactosidase A at pH 4.5 | 230,000 tested, under 10 active | purified enzyme, 4-MU-alpha-Gal fluorescence, pH 4.5 | activity change, negative = inhibition, % at 105 µM; inconclusive = small, poorly fitted or top-dose-only inhibition, or a rising curve; inactive = flat fitted curve, though single readings scatter; no compound was filed as active;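 further: 0% = full activity with enzyme and -100% = basal without enzyme; dose as in the result columns while the protocol names 77 µM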
Rango-impB inh = prevents formation of the Rango-importin beta complex; AID 540263; Potency, µM (series often up to 92.2 µM), without a hit: top-dose inhibition of complex formation; Rango CFP/YFP FRET sensor + importin beta, 45 min; 0.031% of 340,000 active; Q14974; active = rising FRET ratio curve, often small or poorly fitted; inconclusive = mostly compound fluorescence or quenching in the first reads; inactive = flat curves in all reads;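 further: potency means the concentration at half of the fitted maximal effect; 0% = DMSO wells and 100% = buffer wells lacking importin beta; nearly all actives have a fitted effect of over 15% in size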
Target sequence (Q14974 whole entry, looked up): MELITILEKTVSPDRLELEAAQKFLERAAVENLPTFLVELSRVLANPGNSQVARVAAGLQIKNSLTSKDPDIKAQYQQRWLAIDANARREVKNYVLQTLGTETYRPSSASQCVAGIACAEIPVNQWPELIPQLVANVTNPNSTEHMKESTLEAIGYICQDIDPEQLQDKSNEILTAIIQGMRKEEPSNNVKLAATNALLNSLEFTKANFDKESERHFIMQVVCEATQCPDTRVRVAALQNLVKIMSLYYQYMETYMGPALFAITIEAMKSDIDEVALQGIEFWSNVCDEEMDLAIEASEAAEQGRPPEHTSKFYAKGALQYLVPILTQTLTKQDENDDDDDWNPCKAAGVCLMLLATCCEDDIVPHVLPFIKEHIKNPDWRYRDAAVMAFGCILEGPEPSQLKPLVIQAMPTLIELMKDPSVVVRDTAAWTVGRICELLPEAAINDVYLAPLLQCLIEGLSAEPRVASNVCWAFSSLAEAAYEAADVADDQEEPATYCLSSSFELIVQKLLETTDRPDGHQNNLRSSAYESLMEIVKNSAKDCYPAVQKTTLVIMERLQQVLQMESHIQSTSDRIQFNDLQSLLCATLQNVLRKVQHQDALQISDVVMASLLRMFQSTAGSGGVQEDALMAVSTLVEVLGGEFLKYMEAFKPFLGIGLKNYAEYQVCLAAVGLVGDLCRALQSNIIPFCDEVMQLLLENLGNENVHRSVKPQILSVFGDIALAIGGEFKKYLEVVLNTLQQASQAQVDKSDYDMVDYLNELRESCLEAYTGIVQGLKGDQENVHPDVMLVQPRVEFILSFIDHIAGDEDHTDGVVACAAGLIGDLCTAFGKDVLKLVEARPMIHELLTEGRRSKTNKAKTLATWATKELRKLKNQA
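FRET biosensor (snurportin 1 IBB flanked by EYFP and cerulean), 50 nM, with compound 5 min, then 0.125 microM importin beta in PBS, 1 mM DTT, 0.02% Tween-20, 0.1% BSA. CFP/YFP ratio read after 45 min at room temperature; pre-read flags interference.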
* marks the source's active call; other numbers are inactive results; u = inconclusive; x = no result given; [ ] = another dose, or the depositor's remark. Not all compounds are listed; the hit share may differ from the screen's.

| Molecule | Rango release inh | miR-21 reporter | GLA inh pH 4.5 | Rango-impB inh |
| --- | --- | --- | --- | --- |
| CCOc1ccccc1N1CCN(C(=O)Nc2ccc(Cl)c(Cl)c2)CC1 | x | -9% | -18 | x |
| C[C@@H](c1ccccc1)N1C[C@H]2CCCN2c2cc(Br)ccc2S1(=O)=O | -1% | x | x | 2.6% |
| COc1cc(NC(=O)Cn2cnc(S(=O)(=O)N3CCc4ccccc43)c2)cc(OC)c1OC | 11% | -6% | x | 1.6% |
| CC(C)[C@H](N)C(=O)NC[C@H]1O[C@@H](n2cnc3c(N)ncnc32)[C@H](O)[C@@H]1O | -7% | x | x | -2.8% |
| C/C=C/c1ccc(OCC(=O)OCC(=O)NC2CC2)c(OC)c1 | -18% | -2% | -5 | -6.5% |
| Cc1ccc(NC(=S)Nc2cc(-c3ccccc3)[nH]n2)cc1Cl | 13% | -7% | 3 | -0.9% |
| O=C(CC1C(=O)NCCN1Cc1cccc(Oc2ccccc2)c1)NCC1CCOCC1 (configuration not stated) | -2% | 0% | 3 | 5.5% |
| CCCCCC(=O)Nc1cccc(C2=NOC3(C2)C[C@H](C(N)=O)N(C(=O)c2ccccc2C(=O)c2ccccc2)C3)c1 (some centres not stated) | 0% | 25% | -1 | -0.2% |
| CC(=O)N1CCc2c(sc(NC(=O)c3ccc4c(c3)OCCO4)c2C#N)C1 | u | -2% | -6 | u |
| CCCC(=O)NC(c1ccc(OC)c(OC)c1)c1cc(Cl)c2cccnc2c1O (configuration not stated) | 1% | -1% | 3 | 0.9% |
| Cc1ccc(C(=O)ON=C2CCN(c3ccc([N+](=O)[O-])cc3)CC2)cc1 | -5% | -7% | -16 | 3.0% |
| CCN(CC)C(=O)Cn1cnc([N+](=O)[O-])n1 | -15% | 0% | -6 | -5.1% |
| CCc1ccc(C(C)NC(=O)c2ncn[nH]2)cc1 (configuration not stated) | -1% | -4% | -5 | 0.0% |
| O=C(C[n+]1ccccc1)N1c2ccccc2Sc2ccccc21 | 4% | -13% | 5 | -0.4% |
| Cc1ccc(-c2noc(CN(C(=O)CCN3C(=O)c4ccccc4C3=O)C(C)C)n2)cc1 | 3% | -3% | -19 | 3.3% |
| O=C(CSc1ccc(-c2cccs2)nn1)Nc1ccccc1F | 4% | -6% | -20[21.1 µM] | -0.1% |
| O=C1NCCCC1C(=O)N/N=C/c1cccc(Cl)c1 (configuration not stated) | -2% | -6% | 0 | -1.1% |
| O=C(CN1C(=O)/C(=C\c2ccc(F)cc2)Oc2ccccc21)N1CCN(c2ccccn2)CC1 | 0% | -10% | 0 | -2.3% |
| Cc1nc(SCC(=O)N2CCN(C(=O)c3ccco3)CC2)c2c(C)c(C)sc2n1 | -6% | -2% | -3 | 0.3% |
| COc1ccc(-c2nnc(NC(=O)c3c(OC)cccc3OC)s2)cc1 | 6% | 8% | x | 0.1% |
| Cc1cc(C)cc(NC(=O)CSc2nncn2-c2ccccn2)c1 | 2% | 1% | 12 | 1.9% |
| COc1ccc(CNC(=O)C[C@H]2C[C@H](C(=O)N3CCOCC3)[C@@]3(CCC4CCCC4)c4[nH]c5cc(CCC(=O)N(C)C)ccc5c4CCN3C2=O)cc1OC | -5% | x | x | 0.1% |
| COc1ccc(CNC(=O)C2CCCN(S(=O)(=O)c3ccc(Br)s3)C2)cc1 (configuration not stated) | -7% | 9% | x | 4.9% |
| Cn1c(CN2CCCC2)nc2cc(NC(=O)COc3ccc([N+](=O)[O-])cc3)ccc21 | 1% | 2% | 1 | -4.6% |
| O=C1[C@@H](Oc2ccccc2)[C@@H](c2cccnc2)N1c1ccccc1 | 0% | x | x | 2.8% |

As entered above:
COc1ccc(-c2nnc(NC(=O)c3c(OC)cccc3OC)s2)cc1 – Rango-impB inh = 0.1%
CCCCCC(=O)Nc1cccc(C2=NOC3(C2)C[C@H](C(N)=O)N(C(=O)c2ccccc2C(=O)c2ccccc2)C3)c1 (some centres not stated) – miR-21 reporter = 25%

Other records follow.
| Molecule | Rango release inh | miR-21 reporter | GLA inh pH 4.5 | Rango-impB inh |
| --- | --- | --- | --- | --- |
| CCN(C(=O)CSc1nc2ccccc2o1)c1c(N)n(Cc2ccccc2)c(=O)[nH]c1=O | 4% | x | x | 3.7% |
| Cc1ccc(OCCOC(=O)CCc2nc3ccccc3c(=O)[nH]2)cc1 | 3% | 0% | u | 1.0% |
| CCN(C(=O)CSc1nnc(NC2CCCCC2)s1)C1CCS(=O)(=O)C1 (configuration not stated) | -20% | -3% | 2 | 0.4% |
| COc1ccc(C(=O)N2CCNC(=O)C2)cc1S(=O)(=O)Nc1ccc(Br)cc1 | -13% | x | x | 0.3% |
| Cc1c(NC(=O)/C(C#N)=C/c2ccc(-c3cc(Cl)ccc3Cl)o2)c(=O)n(-c2ccccc2)n1C | -22% | -6% | -3 | u |
| Cc1ccc(C(=O)NCC(=O)OCc2cccc(Br)c2)cc1 | 2% | x | x | 6.0% |
| Cc1cccc(NC(=O)c2ccc(S(=O)(=O)N3CCCCC3)cc2)n1 | 0% | -3% | -2 | -0.2% |
| CCC(Sc1ccccc1C(=O)O)C(=O)O (configuration not stated) | 1% | 0% | 0 | -1.2% |
| O=C(NCc1ccc(F)cc1)c1cnccn1 | -8% | -13% | x | 0.8% |
| CN1N=C(C(=O)N2CCc3c([nH]c4ccccc34)C2c2c(F)cccc2Cl)CCC1=O (configuration not stated) | 0% | -33% | -1 | 3.5% |
| Cc1cc2c(cc1C)N(C(=O)CN1C(=O)c3ccccc3C1=O)C(C)(C)c1ssc(=S)c1-2 | 2% | 9% | 1 | -1.5% |
| Cn1c(=O)oc2cc(S(=O)(=O)NC3CCCCC3)ccc21 | 6% | -3% | x | 2.6% |
| N/C(=N\OC(=O)c1ccco1)c1cccc([N+](=O)[O-])c1 | -7% | -52% | -9 | 0.3% |
| CCOC(=O)c1sc(NC(=O)C(CC)Sc2nccn2C)nc1C (configuration not stated) | 0% | -5% | -7 | -5.5% |
| CCCc1nc(SCC(=O)N2c3ccccc3CC2C)c2c(C)c(C)sc2n1 (configuration not stated) | 6% | 1% | 1 | -4.1% |
| O=C(NCCC1=CCCCC1)c1ccc2c(=O)n3c(nc2c1)CCCCC3 | 21% | -27% | 7 | -2.3% |
| CCN(CC)S(=O)(=O)c1ccc2oc(C(=O)NCc3ccc(F)cc3)c(C)c2c1 | -15% | u | -6 | 2.2% |
| Cc1ccc(/C=C/C(=O)O)cc1S(=O)(=O)N1CCc2ccccc2C1 | -5% | -3% | 3 | -1.7% |
| CS(=O)(=O)c1ccc2nc(NC(=O)c3ccco3)sc2c1 | 0% | -8% | -3 | u |
| CCNC(=O)C/C(C)=N/NC(=O)C(=O)Nc1ccc(CC)cc1 | -1% | -24% | -5 | -0.4% |
| CCCSc1nsc(NC(=O)CC)n1 | -11% | -61% | 1 | -0.1% |
| N#CCN1CCN(CC(=O)c2ccc(Br)cc2)CC1 | -8% | -7% | 4 | 0.0% |
| CN1CCN(c2nnc(-c3ccc(F)cc3)c3ccccc23)CC1 | -11% | -3% | x | 4.2% |
| Cc1ccc(-n2nnnc2SC(C)C(=O)Nc2ccccc2-c2ccccc2)cc1 (configuration not stated) | -2% | 0% | -11 | 5.0% |
| CNC(=O)c1ccccc1NC(=O)c1ccco1 | -13% | -6% | -2 | u |
| COc1ccc(C(=O)C(C)OC(=O)c2sc(C)nc2C)cc1 (configuration not stated) | -9% | x | x | -4.4% |
| COc1cccc(-n2nc(C#N)c(Cl)cc2=O)c1 | u | u | 4 | 9.3% |
| COc1ccc(S(=O)(=O)N(C)CC(=O)N2CCCCC2)cc1Cl | 0% | -14% | -13 | 0.2% |
| O=C(O)c1sccc1OCc1ccccc1 | -6% | 1% | 5 | 3.1% |
| CCOC(=O)C1=C(C)n2c(s/c(=C/c3cccc([N+](=O)[O-])c3)c2=O)=NC1c1ccc(O)c(OC)c1 (configuration not stated) | -13% | -3% | -3 | u |
| O=C(CSc1nnc(Cn2nnc3ccccc32)o1)N(Cc1ccc(Cl)cc1)c1ccccc1 | 4% | 22% | -3 | -0.6% |
| COC(=O)Cc1cccc2c(=O)c3ccccc3oc12 | 0% | 1% | -1 | 5.2% |
| CCCCc1ccc(NC(=O)CSc2nnc(CNC(=O)c3ccco3)o2)cc1 | 1% | 0% | x | -1.5% |
| COc1ccc(S(=O)(=O)N2CCC(C(=O)NCCCn3ccnc3)CC2)cc1C | 4% | 0% | x | 0.7% |
| Cc1ccccc1NC(=O)Nc1nnc(Cc2ccc([N+](=O)[O-])cc2)s1 | -16% | -9% | -9 | -0.2% |
| Cc1cc(=O)[nH]c(SCC(=O)NCCOc2ccccc2)n1 | 1% | -1% | 7 | -0.4% |
| CCOc1cc(C)ccc1OCc1nnc(SCC(=O)c2cccc([N+](=O)[O-])c2)n1C | 1% | -5% | 4 | -0.5% |
| COc1cc(NC(C)CCCN)c2ncccc2c1 (configuration not stated) | 9% | x | -15 | u |
| Cc1ccccc1C1CC(=O)Oc2cc(O)ccc21 (configuration not stated) | -10% | x | -1 | 2.5% |
| O=C(OCCN=C1NS(=O)(=O)c2ccccc21)c1ccncc1 | 5% | -3% | 8 | 3.4% |
| Cc1c(NC(=S)NC(=O)c2ccc(COc3ccccc3)cc2)cccc1C(=O)O | -15% | -27% | x | 0.5% |
| COCCCNC(=S)NNC(=O)c1cc(-c2ccncc2)nc2ccccc12 | 0% | -16% | x | -1.4% |
| Cc1cc(N2C(=O)C(O)=C(C(=O)c3ccco3)C2c2cccc(O)c2)no1 (configuration not stated) | u | 0% | x | -3.0% |
| COc1ccc(CNCC(O)(c2ccccc2)c2ccc(F)cc2)cc1OC (configuration not stated) | 1% | 16% | x | -4.7% |
| CC1(c2ccc([N+](=O)[O-])cc2)NC(=O)N(CC(=O)c2ccc3c(c2)OCO3)C1=O (configuration not stated) | 0% | x | x | -3.9% |
| Cc1ccc(NC(=O)c2cccc3ccccc23)cc1 | -12% | -32% | x | 1.2% |
| Cc1cnc(C(=O)OCC(=O)Nc2ccccc2-c2ccccc2)cn1 | -5% | x | x | -2.4% |
| CCc1nnc(NC(=O)CCNC(=O)c2ccccc2Cl)s1 | u | -1% | -2 | 4.2% |
| O=[N+]([O-])c1ccccc1N=Nc1ccc(O)cc1 | 3% | x | x | -0.2% |
| O=C(NCc1cccc(Cl)c1)c1cccc(S(=O)(=O)N2CCCC2)c1 | 9% | x | x | -2.2% |

(listing goes on)
| Molecule | Rango release inh | miR-21 reporter | GLA inh pH 4.5 | Rango-impB inh |
| --- | --- | --- | --- | --- |
| CCN(CC)CCn1c2c(c(SCC(=O)Nc3ccc4c(c3)OCO4)nc1=O)CCC2 | 36% | x | x | -1.2% |
| O=C1N(c2ccccc2)C(=Nc2ccccc2)SC12CC2 | -15% | 2% | -3 | -0.3% |
| CC1Cc2ccccc2N1C(=O)CSc1nnc(Cc2ccccc2)n1CCc1ccccc1 (configuration not stated) | -6% | 21% | -10 | -0.1% |
| O=C(Cc1ccccc1)NC1CCN(S(=O)(=O)c2ccc(C(=O)O)cc2)CC1 | 10% | -3% | 2 | 0.8% |
| COc1ccc(CCNC(=O)c2cc(-c3ccc(Cl)c(Cl)c3)oc2C)cc1 | 6% | -1% | 17 | -0.3% |
| Cc1cc(C)c2c(=O)[nH]n(C3CCCCCC3)c2n1 | 0% | -2% | 3 | -0.8% |

Among those listed so far, 5 have bromine.
| Molecule | Rango release inh | miR-21 reporter | GLA inh pH 4.5 | Rango-impB inh |
| --- | --- | --- | --- | --- |
| C[C@@H](c1ccccc1)N1C[C@H]2CCCN2c2cc(Br)ccc2S1(=O)=O | -1% | x | x | 2.6% |
| COc1ccc(CNC(=O)C2CCCN(S(=O)(=O)c3ccc(Br)s3)C2)cc1 (configuration not stated) | -7% | 9% | x | 4.9% |
| COc1ccc(C(=O)N2CCNC(=O)C2)cc1S(=O)(=O)Nc1ccc(Br)cc1 | -13% | x | x | 0.3% |
| Cc1ccc(C(=O)NCC(=O)OCc2cccc(Br)c2)cc1 | 2% | x | x | 6.0% |
| N#CCN1CCN(CC(=O)c2ccc(Br)cc2)CC1 | -8% | -7% | 4 | 0.0% |
